Screening data as filed in PubChem.
Mtb betalactam: beta-lactam sensitization of Mtb H37Rv, H37Rv. M. tuberculosis H37Rv growth with meropenem, percent inhibition; hits of this screen are not shown here. inhibition, % at 25 µM. 330,000 tested, 0.27% active. AID 434955, 2010;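 active = about 74% or more and at least 40 points above the plate without the antibiotic, then above 30% in a dose series; inconclusive = first-round hits that could not be retested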;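 also: growth measured after seven days incubation then overnight dye step; 0% = bacteria only wells and 100% = bacteria with antibiotic; twin plates without the antibiotic show which effects depend on it; some results filed as inactive read as strong as hits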
Arbovirus inh: antivirals against arbovirus infection, primary screen, cell-based, full library, 10K replicate subset; arbovirus infection cell-based antiviral screen; inhibition, % at 10 µM; 200,000 tested, 0.37% active; AID 1251, 2008;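 active = inhibition from about 30%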;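 also: bluetongue infection of BSR cells; cell survival read as ATP light after 72 h; 0% = infected wells without compound and 100% = uninfected wells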
YopH PTP inh: YopH tyrosine phosphatase inhibitors, primary screen, biochemical, fluorescence Ex485/Em525; YopH tyrosine phosphatase [Yersinia enterocolitica]; inhibition, %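 (about 10 µM by stock and volumes)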; 140,000 tested, 0.16% active; AID 898, 2007;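 active = inhibition of 50% or more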;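 also: controls were vehicle for no effect and minimum signal wells for full effect; inactives centre near -20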
Mtb H37Rv: M. tuberculosis H37Rv growth inhibitors, H37Rv strain (AID 1626) | 220,000 tested, 0.95% active | inhibition, % at 10 µM; hits with a dose series show IC50 in µM | M. tuberculosis H37Rv growth inhibition; higher % means a stronger effect;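 active = confirmed in a dose series; inconclusive = inhibition above 80% but not taken into the dose series; inactive = below 80% or under 30% at every dose of the series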;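 also: bacteria incubated seven days before Alamar blue readout; 0% = bacteria only wells and 100% = bacteria with antibiotic wells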
RecA intein inh: Mtb RecA intein splicing inhibitors, primary screen, biochemical, fluorescence, HTS. 290,000 tested, 0.75% active. Protein RecA (Mycobacterium tuberculosis (strain ATCC 25618 / H37Rv)), P9WHJ3. cell-free RecA intein splicing. inhibition, %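 (about 9 µM by stock and volumes)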. AID 2221, 2009; in the data active = inhibition above about 30%; inconclusive = no clear call, values can overlap the other calls;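 also: 0% = vehicle wells and 100% = reference inhibitor control wells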
Target sequence (P9WHJ3 whole entry, looked up): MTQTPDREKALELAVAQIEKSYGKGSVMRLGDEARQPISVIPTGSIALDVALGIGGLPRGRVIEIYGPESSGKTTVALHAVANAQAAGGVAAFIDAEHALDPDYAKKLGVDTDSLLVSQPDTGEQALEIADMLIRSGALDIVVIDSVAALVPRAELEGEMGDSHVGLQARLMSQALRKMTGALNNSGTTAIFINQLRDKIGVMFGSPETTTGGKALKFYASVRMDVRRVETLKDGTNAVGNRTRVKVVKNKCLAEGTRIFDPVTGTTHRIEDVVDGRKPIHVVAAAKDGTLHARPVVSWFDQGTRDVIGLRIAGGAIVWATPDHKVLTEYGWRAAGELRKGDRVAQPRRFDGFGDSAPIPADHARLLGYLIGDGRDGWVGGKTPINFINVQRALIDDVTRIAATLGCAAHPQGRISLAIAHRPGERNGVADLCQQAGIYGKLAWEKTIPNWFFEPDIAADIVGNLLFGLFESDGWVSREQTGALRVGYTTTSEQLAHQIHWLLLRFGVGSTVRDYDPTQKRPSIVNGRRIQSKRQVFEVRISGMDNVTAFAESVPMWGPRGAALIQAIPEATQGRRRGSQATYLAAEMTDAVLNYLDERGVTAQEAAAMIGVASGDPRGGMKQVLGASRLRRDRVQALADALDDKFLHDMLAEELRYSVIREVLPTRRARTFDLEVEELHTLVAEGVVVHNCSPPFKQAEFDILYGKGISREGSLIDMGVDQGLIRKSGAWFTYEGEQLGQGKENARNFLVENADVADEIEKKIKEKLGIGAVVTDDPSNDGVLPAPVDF
Arbovirus inh repeat: further read-out of Arbovirus inh, marked with its call; inhibition, %; measured here: 10K subset replicate screen; many hits read low in the repeat;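 first of two repeat runs on a subset; 0% = infected and 100% = uninfected wells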
Starred values were filed as active, the others as inactive; ? = inconclusive; nt = not tested or not shown. The list is partial; the hit share may differ from the screen's.

SMILES	Mtb betalactam	Arbovirus inh	YopH PTP inh	Mtb H37Rv	RecA intein inh	others
CCOc1ccc(N(CC(=O)Nc2ccccc2OC)S(C)(=O)=O)cc1	7	nt	nt	nt	0.1
COC(=O)Cn1c(=O)c(C)nc2ccccc21	-3	6	nt	-4%	9.9
O=C(NCc1cccc(F)c1)c1cccc(OC2CCN(C(=O)C3CC3)CC2)c1	8	nt	nt	nt	0.3
COc1cc(OC)cc(C(=O)N[C@H](C(=O)OCC(=O)Nc2ccc(C(N)=O)cc2)C(C)C)c1	-2	1	-17	9%	-1.7
CN(Cc1ccccc1)C(=O)COc1ccccc1	-9	-34	2	0%	-3.6
Cc1nc(N/N=C\c2ccc3c(c2)OCO3)sc1C	99	nt	nt	nt	2.6
O=C(NCCCN1CCOCC1)c1cc(-c2ccc(Cl)s2)nc2ccccc12	-8	nt	nt	nt	-1.4
CN(NC(=O)c1ccccc1F)c1ncccc1[N+](=O)[O-]	3	nt	nt	2%	0.5
CCC1CCc2c(sc(NC(=O)C3c4ccccc4Oc4ccccc43)c2C(N)=O)C1 (stereo not drawn)	7	-2	-19	5%	14
Cc1cc(C(=O)OCC(=O)NCc2ccccc2)c(C)o1	1	-7	nt	4%	2.3
CCOC(=O)c1c(C)oc2ccc(OCC(=O)C(C)(C)C)cc12	-6	-3	-21	13%	-1.3
CCOC(=O)CC1=C(C(=O)OCC)C(c2ccc(OC)c(OC)c2)C(C#N)=C(N)O1 (stereo not drawn)	-9	2	-8	3%	-1.0
CCC(C(=O)OCC(=O)Nc1ccc(SC(F)F)cc1)c1ccccc1 (stereo not drawn)	nt	-25	-7	11%	7.5
Cc1ccc(NC(=O)c2sc3ncn(CC(=O)N4CCN(c5ccccn5)CC4)c(=O)c3c2C)cc1Cl	0	nt	nt	nt	-1.4
COc1ccc(NC(=O)Nc2ccc(C)cc2OC(F)F)cc1OC	-6	1	-12	4%	-7.6
COc1ccccc1N1C(=O)NC(=O)C2(Cc3cc(C)ccc3N(C)C2)C1=O (stereo not drawn)	-5	8	5	-5%	-1.6
COc1cccc(N2CCN(Cc3ccsc3)CC2)c1	-5	-13	-36	nt	1.0
Nc1cc(C(=O)c2cccs2)ccc1Cl	1	0	-40	-8%	1.7	Arbovirus inh repeat=-3
COc1ccc(-c2cc(CNC(=O)CN(C)Cc3ccccc3)on2)cc1	-1	-1	-26	nt	1.1
CCOc1ccc(CNC(=S)N/N=C/c2ccncc2)cc1	4	-10	-24	4%	-4.2
CCCCn1c(N)c(N(CCOC)C(=O)c2cnc(C)cn2)c(=O)[nH]c1=O	-1	nt	nt	nt	-1.7
CC(CCc1ccccc1)NC(=O)Cc1ccccc1 (stereo not drawn)	1	-5	-25	5%	2.1
O=C(Nc1ccc(N2CCOCC2)cc1N1CCOCC1)c1ccc(Br)cc1	-9	nt	nt	nt	-1.6
CC1=Nc2cc(C(=O)O)ccc2Sc2ccc(Br)cc21	-7	18	-31	nt	nt
CCCCN(C)Cc1c(C)[nH]c2ccccc2c1=O	3	1	nt	-3%	1.0

Among those listed so far, 2 contain a furan ring, fused or not.
SMILES	Mtb betalactam	Arbovirus inh	YopH PTP inh	Mtb H37Rv	RecA intein inh	others
Cc1cc(C(=O)OCC(=O)NCc2ccccc2)c(C)o1	1	-7	nt	4%	2.3
CCOC(=O)c1c(C)oc2ccc(OCC(=O)C(C)(C)C)cc12	-6	-3	-21	13%	-1.3

Back to the main list; the 2 compounds before the break are reprinted first.
SMILES	Mtb betalactam	Arbovirus inh	YopH PTP inh	Mtb H37Rv	RecA intein inh	others
CC1=Nc2cc(C(=O)O)ccc2Sc2ccc(Br)cc21	-7	18	-31	nt	nt
CCCCN(C)Cc1c(C)[nH]c2ccccc2c1=O	3	1	nt	-3%	1.0
Cc1cc(C)c2sc(N(CCCN(C)C)C(=O)c3ccc(S(=O)(=O)N4CCc5ccccc5C4)cc3)nc2c1	-9	nt	nt	nt	0.1
CCCCCCCC(=O)Nc1cc(C(=O)NCCC)ccc1N1CCC2(CC1)CC(c1ccccc1)=NO2	-5	nt	nt	nt	1.0
CC(C)c1cc(C(N)=O)c(NC(=O)C2CCC2)s1	9	-10	-26	-2%	1.9
O=C(NCc1ccc2c(c1)OCO2)c1ccc(S(=O)(=O)C(F)F)cc1	2	-5	nt	9%	-2.6
O=C(Nc1ccc(F)cc1Cl)C1=COCCO1	-6	nt	nt	nt	-3.3
CCOCCN1CCN(C(=O)CN2CCCC2=O)CC1	-5	2	-11	0%	-1.9
CCOc1ccc(C2/C(=C(\O)c3ccc(OC)c(OC)c3)C(=O)C(=O)N2c2cc(C)on2)cc1OC (stereo not drawn)	1	1	0	-8%	-0.1
COCCNC(=O)c1ccc2c(c1)nc(C)n2-c1cccc(F)c1	-9	0	-35	-3%	-0.8
Cn1cc(CC(=O)NCCCN2CCCC2=O)c2ccccc21	9	8	-50	2%	1.5	Arbovirus inh repeat=0
CCC(C)(C)NC(=O)C(c1ccccc1)N(Cc1cccnc1)C(=O)c1csnn1 (stereo not drawn)	6	-4	-5	-7%	0.0
CN1CCN(CCC(=O)N/N=C/c2cc([N+](=O)[O-])ccc2O)CC1	40	-8	-47	-2%	3.3
O=C(c1ccco1)N1CCN(c2ncccn2)CC1	-1	9	nt	2%	-1.0	Arbovirus inh repeat=-2
CCCn1cc(S(=O)(=O)CC(=O)Nc2ccc(OC)cc2OC)c2ccccc21	2	5	-19	-7%	-0.2	Arbovirus inh repeat=1
CC1CCc2cc(F)ccc2N1C(=O)C12CCC(C)(C(=O)O1)C2(C)C (stereo not drawn)	-7	-4	nt	-3%	-0.7
CCOc1ccccc1N1CC(C(=O)N(C)Cc2cccnc2)CC1=O (stereo not drawn)	4	nt	nt	nt	-1.0
COc1cc(CCN2C(=O)c3cccc4cccc(c34)C2=O)c(S(=O)(=O)NCCO)cc1OC	-10	-3	-66	-10%	0.7
COc1ccc(OC)c(-c2cc(C(=O)Nc3c(C)nn(Cc4ccccc4Cl)c3C)no2)c1	-5	1	-42	7%	4.0
Cc1ccc(-n2ncc(Cl)c2C(=O)NC2CC2)cc1	-4	-6	nt	7%	9.6
CCN1C(=O)/C(=C/c2cccs2)S/C1=N\S(=O)(=O)c1ccc(C)cc1	3	-9	-27	-1%	2.1
Cn1c(=O)c2c(SC3CCCC3)nc(C3CC3)nc2n(C)c1=O	3	-1	nt	2%	-2.4	Arbovirus inh repeat=-2
COc1ccc(-n2nc3c(c2NC(=O)CBr)CSC3)cc1	?	nt	nt	nt	-0.5
O=C(N/N=C/c1ccccc1C(F)(F)F)c1ccc(O)cc1	10	4	nt	-5%	-0.8
Cc1ccc(CC(=O)N2CCC(c3nc4c(nnn4Cc4ccccc4)c(=O)[nH]3)CC2)cc1	-5	7	-23	2%	10	Arbovirus inh repeat=-2
c1ccc2c(c1)nc(N1CCCCC1)c1ccccc12	0	nt	nt	12%	13
COc1ccc(NC(=O)CC23CC4CC(C2)CC(n2nnc(C)n2)(C4)C3)cc1	-1	2	nt	2%	2.5
SMILES	Mtb betalactam	Arbovirus inh	YopH PTP inh	Mtb H37Rv	RecA intein inh	others
Cc1ccc(NC(=O)CSc2nc3ccccc3c(=O)n2CCCC(=O)NCCCN2CCOCC2)cc1C	2	6	nt	-3%	0.3
CN1CCNC(=O)C1CC(=O)NCCC1=CCCCC1 (stereo not drawn)	1	7	nt	6%	-2.8
CCc1cccc(NC(=O)C2CCCN(c3cnccn3)C2)c1 (stereo not drawn)	-1	nt	nt	nt	3.8
O=C1CC(SCCc2nc3ccccc3[nH]2)C(=O)N1c1ccc(F)cc1 (stereo not drawn)	-3	4	-21	-1%	-1.9
O=C(CN1C(=O)NC2(CCCC2)C1=O)N1CCN(S(=O)(=O)c2ccc(Cl)c(C(F)(F)F)c2)CC1	-4	nt	nt	nt	-0.8
Cc1ccc(NC(=O)CN2CCN(Cc3ccccc3)CC2)c(Br)c1	-11	nt	nt	nt	1.3
COc1ccccc1NC(=O)C(=O)N/N=C(\C)CC(=O)Nc1ccccc1C(F)(F)F	-4	nt	nt	nt	-1.9
CCOCC(=O)Nc1nnc(C)s1	31	2	-33	6%	1.9
NS(=O)(=O)c1ccc(NC(=S)NCc2ccc(Cl)cc2)cc1	2	-14	18	11%	8.4
CSC(=Nc1ccc(Cl)cc1)N[n+]1ccccc1	-7	2	-15	4%	0.6
COc1ccc2nc(COC(=O)c3cccc([N+](=O)[O-])c3)c(C(C)=O)[n+]([O-])c2c1	-6	nt	nt	-7%	0.7
Nc1nc(Cl)c(C=O)c(N2CCCCC2)n1	9	10	nt	-6%	-2.2
O=C(/C=C/c1ccc(OCCCF)cc1)Nc1ccnc(-c2cccnc2)n1	-4	-8	nt	-7%	-2.6
Cc1cccc(C)c1OCc1cc(C(=O)N2CCC(C3CCCCC3)C2)no1 (stereo not drawn)	1	nt	nt	nt	2.0
COc1cc(C2C(C#N)=C(N)Oc3cc(O)ccc32)cc2c1OCO2 (stereo not drawn)	-3	-16	-41	-1%	-5.6
Cc1ccc(NC(=S)N2CCCC(c3ccccc3)=N2)cc1	97	nt	nt	19%	3.9
Cc1ccccc1C(=O)Nc1nnc(S(=O)(=O)N(C)Cc2ccco2)s1	5	nt	nt	nt	1.3
N/C(=N\OC(=O)c1ccccc1Cl)c1ccncc1	-5	-1	nt	-20%	-3.4
CC(NC(=O)CS(=O)(=O)c1ccccc1)c1ccccc1 (stereo not drawn)	-23	nt	nt	nt	3.0
CCCS(=O)(=O)N1CCCC(C(=O)NCc2cccnc2)C1 (stereo not drawn)	-6	7	0	-2%	-0.5
O=C(NC1CCCC1)c1ccc(CSCc2ccccc2F)o1	30	9	1	10%	5.8
CC(C)CCn1nnnc1CN1CCN(c2ccccc2)CC1	0	8	nt	-2%	1.8
COc1ccc(C(O)(CCC(C)C)C(CN2CCOCC2)c2ccccc2)cc1 (stereo not drawn)	11	nt	nt	nt	-2.9
COCCCN(C(=S)Nc1cc(C)cc(C)c1)C(C)c1ccncc1 (stereo not drawn)	11	-5	-15	1%	-0.9
COc1cc(OC)nc(NC(=O)CSc2nc3ccccc3[nH]2)n1	0	0	-14	-11%	1.5
SMILES	Mtb betalactam	Arbovirus inh	YopH PTP inh	Mtb H37Rv	RecA intein inh	others
Cc1cnc(CN(C)C(=O)CC2C(=O)NCCN2CCCc2ccccc2)[nH]1 (stereo not drawn)	-10	nt	nt	nt	-2.1
COc1cc(C)c(NC(=O)C(=S)NCc2ccccc2)cc1C	-5	-1	nt	2%	0.1
CCOC(=O)c1ccccc1NC(=O)CSc1nc2ccccc2o1	91	4	-34	2%	-2.9
Nc1ccc(N2CCCCCC2)cc1	2	-3	30	-2%	nt
C=CCNc1ccc(N2C(=O)CCCC2=O)cc1[N+](=O)[O-]	1	nt	nt	nt	0.9
Cc1cc(O)ccc1Nc1nc(-c2cccs2)cs1	-5	-26	nt	10%	30*
COc1ccc(-c2nnc(-c3ccc(F)cc3)o2)cc1	4	nt	nt	nt	0.6
CCOC(=O)c1ccccc1NC(=O)Cn1cnc2c(cnn2-c2ccc(F)cc2)c1=O	nt	-5	0	-5%	nt
CCOC(=O)c1cc(C)nc(SC)c1C#N	4	nt	nt	3%	-3.9
Cc1oc(-c2ccccc2)nc1CS(=O)CC(=O)O (stereo not drawn)	-2	3	-47	-3%	1.2
COC(=O)Cn1c(C)nc([N+](=O)[O-])c1Br	-1	11	nt	-4%	-8.4
O=C(N/N=C/c1cccc(O)c1)C(=O)N1CCCCCC1	-4	nt	nt	nt	-0.6
COc1ccc(OC)c(CNC(=O)CCCn2ccc3cc(S(=O)(=O)N4CCCC4)ccc32)c1	-1	nt	nt	nt	3.3
CN(C)CC#CCOCCOCCC#N	-11	5	-6	-1%	0.6
COc1ccc(CC(=O)N/N=C/c2sccc2C)cc1	10	nt	nt	nt	0.6
S=C(Nc1ccc(OCc2ccccc2)cc1)Nc1cccc(Cl)c1Cl	27	3	-16	73%	0.2
CCOc1cccc2cc(C(=O)NCc3ccccc3Cl)c(=O)oc12	4	nt	nt	nt	-2.8
C=CCn1c(SCC(=O)NC2CC2)nnc1C1CC1	-5	nt	nt	nt	-0.4
O=C(CCc1ccccc1)Nc1ccc2c(c1)OCCO2	3	1	26	8%	-0.2
CC(=O)Nc1ccc(NC(=O)c2c(C)c(-c3ccccc3)nc3ccccc23)cc1	-7	nt	nt	nt	0.3
CC1(C)CCC(=O)N2CC[C@H]3C[C@H](OC(=O)Nc4ccc(Br)cc4)C[C@@H]1[C@H]32	-1	nt	nt	nt	-3.4
O=C(Nc1cc(Sc2nc3ccccc3s2)cc([N+](=O)[O-])c1)c1ccccc1	16	10	-38	18%	3.0
Cc1cc(S(=O)(=O)N2CCCCC2)ccc1OCC(=O)Nc1ccccc1	-11	nt	nt	nt	0.6
